# OX1R antagonist: human HCRTR1 antagonism; CHO/OX1R cells, Fluo-8 calcium fluorescence, orexin A; O43613; hit rate 0.43% among 330,000; inhibition, % at 5 µM;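 active means inhibition above its plate's threshold, mean inhibition of all tested compounds on the plate plus 3 SD, cut at about 37% in these data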;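 further: 0% = orexin A challenge wells and 100% = SB-334867-A antagonist wells; not every result past the cut was called active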
# Target sequence (O43613 whole entry, looked up): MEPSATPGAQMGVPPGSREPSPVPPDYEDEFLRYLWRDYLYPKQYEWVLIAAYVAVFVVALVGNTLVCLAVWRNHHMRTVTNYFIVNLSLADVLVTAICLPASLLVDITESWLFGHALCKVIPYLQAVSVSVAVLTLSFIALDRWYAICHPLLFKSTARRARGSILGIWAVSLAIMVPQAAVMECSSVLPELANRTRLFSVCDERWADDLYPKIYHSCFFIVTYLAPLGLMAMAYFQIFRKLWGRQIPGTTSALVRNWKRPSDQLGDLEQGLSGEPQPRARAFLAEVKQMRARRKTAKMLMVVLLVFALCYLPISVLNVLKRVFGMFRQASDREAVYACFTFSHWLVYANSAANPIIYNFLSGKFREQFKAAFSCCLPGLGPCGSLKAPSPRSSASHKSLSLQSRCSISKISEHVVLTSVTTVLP
# Active calls of the source: *; & = joins results of further samples. Some of the compounds tested, and most or all hits are left out here.
SMILES,OX1R antagonist
CCOCc1nnc(NC(=O)CCc2ccccc2)s1,-14
NC(=O)CSc1nnc(Cc2csc(Nc3ccc(F)cc3)n2)n1Cc1ccccc1,-18
CCC(C)(C)C1CCc2[nH]nc(C(=O)NCC3CC3)c2C1 (centres undefined),-14
N#CC1=C(N)N(c2ccccc2)C2=C(C(=O)CCC2)C1c1cccs1 (centres undefined),5
CCN1CCN(CC(=O)N2N=C(c3cccs3)CC2c2ccc(C)cc2)C(=O)C1=O (centres undefined),-20
O=C1NCC2=C1C(c1ccccc1)Nc1ccccc1N2 (centres undefined),-15
O=C(NCCNC(=O)c1ccc([N+](=O)[O-])cc1)c1ccncc1,13
CCCCN1C(=O)CC(N2CCOCC2)C1=O (centres undefined),-15
CCSc1n[nH]c(=O)[nH]c1=O,-7
CCOC(=O)c1[nH]c2ccccc2c1NC(=S)Nc1cccc(C)c1C,-11
O=C(Oc1ccc(OC(=O)N2CCCCC2)cc1)c1ccccc1,-22
COc1cccc(N2CCN(C(=O)CCS(=O)(=O)c3ccc4c(c3)oc(=O)n4C)CC2)c1,-4
CCCCC(CC)CNC(=O)Cn1c(=S)[nH]c2ncccc2c1=O (centres undefined),3
O=C(CN1CCC(NC(=O)Nc2ccccc2)CC1)Nc1cccc([N+](=O)[O-])c1,-7
O=C(COc1cccnc1[N+](=O)[O-])NCCc1ccccc1,-11
CCN(CC(=O)Nc1c(F)cccc1F)C(=O)CN1c2cccc3cccc(c23)S1(=O)=O,-28
COc1cc(/C=C2\SC(c3ccc(C)cc3)=NC2=O)cc(OC)c1O,-4
COc1ccccc1CC(=O)Nc1ccc(-c2noc(COc3cccc(C)c3C)n2)cc1,-4
CC(=O)Nc1cc(C(=O)N2CCCC2)ccc1Sc1ccc(C)cc1,-34
COc1ccc(C(=O)CN2CCN(c3ccc(Cl)cc3)CC2)cc1OC,-19
CC(OC(=O)c1ccccc1NCCO)C(=O)Nc1ccc(S(=O)(=O)N2CCOCC2)cc1 (centres undefined),-21
O=c1cc(CN2CCN(C/C=C/c3ccccc3)CC2)c2cc(O)c(-c3ccccc3)cc2o1,-23
Cc1[nH]c2ccc(C(=O)N3CCN(C)CC3)cc2c1C,-18
Cc1cc(=O)oc2c(C)c(OCC(=O)N(C)C)ccc12,-25
COC(=O)Cc1cc(=O)n2[nH]cnc2n1,-15
Cc1ccccc1NC(=S)NC(NC(=O)C(C)(C)C)C(Cl)(Cl)Cl (centres undefined),-28
O=C(Nc1ccc(F)cc1F)N1CCN(C/C=C/c2ccccc2)CC1,-17
COC(=O)CSc1nc2c(c(=O)[nH]c(=O)n2C)n1CCC(C)C,-10
Cc1csc(NC(=O)CSc2nc(=O)n(CCN(C)C)c3c2CCCC3)n1,-19
CCn1cc(CNc2nc3nonc3nc2N2CCCCC2)cn1,-19
O=C(Cn1cnc2ccccc2c1=O)N1CCN(Cc2ccccc2)CC1,-14
Cc1ccccc1NS(=O)(=O)c1cc(OCC(N)=O)c(C)cc1Cl,-8
O=C(CCCN1CCOC(c2ccccc2)C1)c1ccc(F)cc1 (centres undefined),-26
CCCCOP(=O)(c1ccc(N(C)C)cc1)C(O)c1ccc(C(C)C)cc1 (centres undefined),-17
CCCCn1nnnc1NCc1ccc(N2CCCC2)cc1,-25
O=C(CSc1ncnc2ccccc12)c1ccco1,-9
O=C1/C(=C\c2ccco2)SC(=S)N1C1CCS(=O)(=O)C1 (centres undefined),-9
Cc1ccc(S(=O)(=O)N2CCOCC2)cc1C(=O)NCCCn1ccnc1,-10
CCOC(=O)c1c(C)[nH]c(C(=O)OCc2c(C)noc2C)c1C,-27
CC(NC(=O)c1ccco1)C(c1cccs1)N1CCN(c2ccccc2F)CC1 (centres undefined),-35
CCNC(=S)N1CCN(S(=O)(=O)c2cccc(C(F)(F)F)c2)CC1,-11
N#Cc1nc(COc2ccc(Br)cc2)oc1NCCN1CCOCC1,-23
COC(=O)CSc1nnc(CSc2nc(C)cc(C)n2)n1Cc1ccco1,-9
CCN(CC(=O)Nc1cc(C)nn1-c1nc(C)cc(C)n1)Cc1ccccc1,-19
COc1ccc(/C=N/NC(=O)CN2CCN(Cc3ccccc3)CC2)cc1Br,-8
NC(=O)c1sc2nc3c(c(-c4ccco4)c2c1N)CCC3,-20
COc1cccc(-c2nc(-c3ccccn3)no2)c1,-10
COc1cc(S(=O)(=O)N2CCCCC2)ccc1NC(=O)c1ccncc1,13
CCOc1ccc(-c2nc(-c3cccnc3)no2)cc1OCC,-17
CC(C)(C)C(=O)N1CCC(O)(CS(=O)(=O)Cc2ccc(Cl)cc2)CC1,-12

# A draw from above in order of molar mass, ascending.
SMILES,OX1R antagonist
COc1cccc(-c2nc(-c3ccccn3)no2)c1,-10
CCOc1ccc(-c2nc(-c3cccnc3)no2)cc1OCC,-17
CC(C)(C)C(=O)N1CCC(O)(CS(=O)(=O)Cc2ccc(Cl)cc2)CC1,-12

# Going on with the list.
SMILES,OX1R antagonist
COCCNC(=O)C(c1ccco1)N(C(=O)Cn1nnc2ccccc21)c1ccccc1C (centres undefined),-29
COc1ccc(Cn2nnnc2CN2CCCCCC2)cc1,-13
Cc1nc(-c2ccccn2)nc(N(C)c2ccccc2)c1Cl,-32
CCOC(=O)c1ccc(NC(=O)CSc2nc3ncccc3[nH]2)cc1,-8
C=CCn1cc(/C=N/Nc2nc3ccccc3[nH]2)c2ccccc21,-12
CC(=O)c1nc2ccccc2n1S(=O)(=O)c1ccc(Cl)cc1,-7
CCC(CC)NC(=O)COC(=O)c1ccc(NS(=O)(=O)c2ccc3c(c2)OCCO3)cc1,-13
CSc1ccc(S(=O)(=O)NCc2ccc(C)cc2)cc1,-11
O=c1[nH]c(N2CCCCCC2)nc2ncn(Cc3ccccc3)c12,-17
O=C(NNS(=O)(=O)c1ccccc1[N+](=O)[O-])c1ccccc1[N+](=O)[O-],-7
O=C(O)c1ccc(S(=O)(=O)N(Cc2ccccc2)Cc2ccccc2)cc1,-9
COc1cccc(NC(=O)CN(C)C(C)C(=O)Nc2ccc(S(=O)(=O)N3CCOCC3)cc2)c1 (centres undefined),-38
C=C(C)C(=O)Nc1cccnc1Oc1ccc(F)cc1F,-2
O=C(CN1CCN(Cc2ccccc2)CC1)Nc1nnc(C(F)(F)F)s1,-19
COc1ccc(NC(=O)CN(C)Cc2cccs2)cc1Cl,-23
C=CCn1c(SCC(=O)Nc2ccccc2)nnc1-c1cccc(S(=O)(=O)N2CCOCC2)c1,-26
COc1ccc(NC(=O)COC(=O)c2ccc(O)cc2)c([N+](=O)[O-])c1,-27
CC(=O)Nc1cc(S(=O)(=O)Nc2ccccc2C)c(C)cc1C,3
COCCN(C(=O)COC(=O)c1ccc2c(c1)OCCO2)c1c(N)n(Cc2ccccc2)c(=O)[nH]c1=O,-16
CC1=CC(=C(C#N)c2nc3ccccc3s2)C=C(C)N1CC1CCCO1 (centres undefined),-20

# Of the compounds above, these contain a CF3 group.
SMILES,OX1R antagonist
CCNC(=S)N1CCN(S(=O)(=O)c2cccc(C(F)(F)F)c2)CC1,-11
O=C(CN1CCN(Cc2ccccc2)CC1)Nc1nnc(C(F)(F)F)s1,-19

# The listing continues:
SMILES,OX1R antagonist
O=C(Cc1cccc2ccccc12)NNC(=O)Nc1cccc(Cl)c1,-14
C/C(=N/NC(=O)c1ccoc1C)c1ccc(NC(=O)c2ccncc2)cc1,-7
CCn1c(=O)c(C(=O)NCc2ccc(F)cc2)c(O)c2ccccc21,-63
CC(C)c1ccc(NC2CCCN(C(=O)CSc3nncn3C)C2)cc1 (centres undefined),-13
O=C(CN1C(=O)NC2(CCCCC2)C1=O)NCCC1=CCCCC1,3
O=C(Cn1cc(C(=O)C2CC2)c2ccccc21)Nc1ccc(F)cc1,-10
CCc1nnc(NC(=O)CSc2ncnc3c2oc2ccccc23)s1,-13
OCCC1CN(Cc2cccc3c2OCO3)CCN1C1CCCCC1 (centres undefined),-21
Cc1cc(Cl)c(S(=O)(=O)Nc2ccc3c(c2)OCO3)cc1OCC(=O)NC1CCCCC1,-17
COc1ccc(NC(=O)CCNS(=O)(=O)c2cccc(C(C)=O)c2)cc1S(N)(=O)=O,-15
CCc1nc2sc(C(=O)O)c(N)c2c2c1CCCC2,-4
COc1ccc(N2CCN(C(CNC(=O)c3ccco3)c3ccco3)CC2)cc1 (centres undefined),-9
c1cncc(Oc2cccc(Oc3cccnc3)c2)c1,-2
O=C1c2ccccc2C(Nc2ccc(S(=O)(=O)N3CCCCCC3)cc2)N1c1ccccn1 (centres undefined),-33
NS(=O)(=O)c1ccc(CCNC(=S)NC2CCCCC2)cc1,-3
Cc1cccc(C(=O)OCC(=O)NN2C(=O)NC3(CCC(C)CC3)C2=O)c1O (centres undefined),-13
Cn1c(=O)c2c(nc(SCCN3CCOCC3)n2Cc2ccccc2Cl)n(C)c1=O,-21
CC1C[N+](=C2C=C(N3CCOCC3)CC(C)(C)C2)CC(C)O1 (centres undefined),-7
CC(C)[C@H](N)C(=O)OCCOCn1cnc2c(=O)[nH]c(N)nc21,7&3
C[N+](C)(C)CCCCCCC(=O)/C=N/O,2
CCNC(=O)CN(c1ccc(Cl)cc1)S(=O)(=O)c1ccccc1,-14
COc1cc2c(cc1OC)CN(CC(=O)Nc1ccccc1C#N)CC2,-21
CC(C)c1cccc(C(C)C)c1OCCCCN1CCCC1,-14
Cc1cccc(NC(=O)CNC(=O)c2ccccc2Cl)n1,-11
COC(=O)c1c(N2C(=O)[C@H]3[C@@H](C2=O)[C@]2(C(=O)Nc4c2ccc(C)c4C)N2CCC[C@@H]32)sc(C)c1C,-18
CCn1c(C(=O)NCc2ccccn2)cc2sccc21,-21
COC(CN(C(=O)CCl)C(C(=O)NC1CCCCC1)c1ccccc1C)OC (centres undefined),-3
O=C(NC1CCCC1)C(c1ccccn1)N(C(=O)c1csnn1)C1CCCC1 (centres undefined),-26
CCOCCCNC(=O)C1CCN(S(=O)(=O)c2c(C)noc2/C=C\c2ccc(OC)cc2)CC1,-8
CC(=O)N=C1SC2CS(=O)(=O)CC2N1c1c(Cl)cccc1Cl (centres undefined),-10
COc1ccc(S(=O)(=O)N2Cc3ccccc3CC2C(=O)N2CCOCC2)cc1 (centres undefined),-20
Cc1csc(NC(=O)C(Cc2ccccc2)n2cccc2)n1 (centres undefined),-23
N=c1c2c3c(sc2ncn1CCN1CCOCC1)CCCC3,-29
COCCN1C(=O)C(=O)/C(=C(/O)c2ccc(S(=O)(=O)N3CCOCC3)cc2)C1c1cccc(Cl)c1 (centres undefined),-5
CCOC(=O)C1=C(N)N2C(=O)CSC2=C(C(=O)OC)C1,-17
CCOC(=O)c1n[nH]c2ccccc12,2
Nc1ccc(N2C(=O)c3ccccc3C2=O)c(Cl)c1,-14
Cc1nc(N2CCCCC2)c2c(C)c(C(=O)Nc3ccccc3C(F)(F)F)sc2n1,-47
CC1=C(C)Cc2c(OC(=O)c3ccccc3)ccc(OC(=O)c3ccccc3)c2C1,-14
O=C(CCS(=O)(=O)c1ccc(Br)cc1)N1CCN(c2ccccc2F)CC1,-21
CCOc1ccc(/C=C/C(=O)N2CCOCC2)cc1OC,-3
CC(=O)N1CC=CC1(C)C(=O)O (centres undefined),-3
CCOc1ccc(Cl)cc1CNCCNCC(C)O (centres undefined),-11
CC(C)Cc1cc(CNC(=O)C2CCC(=O)N(Cc3cccc(C(F)(F)F)c3)C2)on1 (centres undefined),-15
Cc1c(S(=O)(=O)Nc2cccc(Cl)c2)c(=O)n(C)c(=O)n1C,-22
CCC(CC)C(=O)NCc1ccc(Cl)cc1,-22
COC(=O)c1ccc(C23CC4(C2)[C@H](CN(Cc2cccnc2)[C@@H]4c2ccccc2)C3c2ccccc2)cc1 (some centres undefined),-23
CCN(CC)c1ccc(NC(=O)c2cnc3ccccn3c2=O)c(C)c1,-14
CCCNC(=O)COc1ccccc1[N+](=O)[O-],-5
COc1nc(OC)nc(N2CCC(C(=O)NCc3cccs3)CC2)n1,-15

# In the list so far, 11 have two or more sulfur atoms.
SMILES,OX1R antagonist
NC(=O)CSc1nnc(Cc2csc(Nc3ccc(F)cc3)n2)n1Cc1ccccc1,-18
Cc1csc(NC(=O)CSc2nc(=O)n(CCN(C)C)c3c2CCCC3)n1,-19
O=C1/C(=C\c2ccco2)SC(=S)N1C1CCS(=O)(=O)C1 (centres undefined),-9
CCNC(=S)N1CCN(S(=O)(=O)c2cccc(C(F)(F)F)c2)CC1,-11
COC(=O)CSc1nnc(CSc2nc(C)cc(C)n2)n1Cc1ccco1,-9
CSc1ccc(S(=O)(=O)NCc2ccc(C)cc2)cc1,-11
C=CCn1c(SCC(=O)Nc2ccccc2)nnc1-c1cccc(S(=O)(=O)N2CCOCC2)c1,-26
CCc1nnc(NC(=O)CSc2ncnc3c2oc2ccccc23)s1,-13
COc1ccc(NC(=O)CCNS(=O)(=O)c2cccc(C(C)=O)c2)cc1S(N)(=O)=O,-15
NS(=O)(=O)c1ccc(CCNC(=S)NC2CCCCC2)cc1,-3
CC(=O)N=C1SC2CS(=O)(=O)CC2N1c1c(Cl)cccc1Cl (centres undefined),-10

# Further compounds.
SMILES,OX1R antagonist
CCOc1cc(-c2ccc(N)c(OCC)c2)ccc1N,-15
COC(=O)c1c(NC(=O)CN2CCN(C(=O)c3ccco3)CC2)c2c(C)cccc2n1C,-27
CS(=O)(=O)c1ccc(Oc2ccc(-c3nnco3)cc2)c([N+](=O)[O-])c1,-9
Cc1occc1-c1nnc(SCC(=O)Nc2ccccc2)n1CCc1ccccc1,-14
COc1cc(/C=C(\NC(=O)c2ccccc2)C(=O)NCCO)c([N+](=O)[O-])cc1OC,-5
Cn1c(=O)cc(SCC(=O)NCCC2=CCCCC2)c2ccccc21,-27
O=C(NS(=O)(=O)Oc1cccc(Cl)c1Cl)OC[C@@H]1CCCN2CCCCC12 (some centres undefined),-7
CCN1CCN(CCNC(=O)CSCc2nc(-c3ccc(OC)c(OC)c3)oc2C)CC1,-21
